# High-throughput results (PubChem)
# Rango release inh: prevents RanGTP from dissociating the Rango-importin beta complex. Biochemical FRET Rango-importin beta, RanGTP-induced dissociation. AID 540253. 0.071% of 340,000 active. Potency, µM (series often up to 46.1 µM), for the others: top-dose activity change, negative = inhibition; active means falling FRET ratio curve, often poorly fitted, with flat reads before Ran was added; inconclusive means other falling curves, or compound fluorescence or quenching; inactive means flat or rising ratio curve;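 note: potency is the fitted concentration of half-maximal effect; % of control where 0% means no effect; nearly all actives have a fitted effect of over 45% in size; -100% = wells without RanGTP and RCC1; the record marks most hits as doubtful in a second field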
#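 Quantitative HTS using a FRET biosensor: 0.1 uM Rango, 0.25 uM importin beta, 0.6 uM Ran, 2 mM GTP, 0.2 uM RCC1 final, PBS with DTT, Tween-20 and BSA. Post-read taken 45 min after Ran addition.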
# Rango complex inh: inhibitors of Rango-importin beta complex formation | Rango CFP/YFP FRET sensor + importin beta, 45 min | Potency, µM (top dose mostly 92.2 µM), for inactives: at the highest dose inhibition of complex formation | AID 540263 | 0.031% of 340,000 active; active = rising FRET ratio curve, often small or poorly fitted; inconclusive = mostly compound fluorescence or quenching in the first reads; inactive = flat curves in all reads;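 note: potency is the fitted concentration of half-maximal effect; 0% = DMSO wells and 100% = buffer wells lacking importin beta; nearly all actives have a fitted effect of over 15% in size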
# Target sequence (Q14974 whole entry, looked up): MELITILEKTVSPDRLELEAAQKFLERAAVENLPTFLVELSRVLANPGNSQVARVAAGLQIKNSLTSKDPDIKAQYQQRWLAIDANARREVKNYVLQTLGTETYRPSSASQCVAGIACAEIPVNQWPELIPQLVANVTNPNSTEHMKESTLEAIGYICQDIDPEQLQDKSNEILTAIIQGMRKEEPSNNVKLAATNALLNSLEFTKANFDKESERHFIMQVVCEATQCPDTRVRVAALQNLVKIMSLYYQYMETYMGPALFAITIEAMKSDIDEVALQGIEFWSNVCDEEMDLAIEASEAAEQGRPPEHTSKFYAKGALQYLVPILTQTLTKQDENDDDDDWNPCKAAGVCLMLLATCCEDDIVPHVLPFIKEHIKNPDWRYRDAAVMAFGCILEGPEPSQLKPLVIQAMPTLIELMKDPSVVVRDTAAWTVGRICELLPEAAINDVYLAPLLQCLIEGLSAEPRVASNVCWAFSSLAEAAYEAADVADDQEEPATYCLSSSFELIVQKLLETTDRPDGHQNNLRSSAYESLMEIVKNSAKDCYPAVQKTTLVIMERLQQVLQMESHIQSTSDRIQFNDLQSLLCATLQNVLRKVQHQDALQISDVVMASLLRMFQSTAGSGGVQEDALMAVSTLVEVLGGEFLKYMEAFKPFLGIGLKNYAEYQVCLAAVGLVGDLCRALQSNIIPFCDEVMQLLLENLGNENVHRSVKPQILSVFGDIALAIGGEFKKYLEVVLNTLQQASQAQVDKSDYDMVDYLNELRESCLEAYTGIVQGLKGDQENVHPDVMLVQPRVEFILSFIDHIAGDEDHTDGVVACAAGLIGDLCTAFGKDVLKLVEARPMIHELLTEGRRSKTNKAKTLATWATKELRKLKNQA
#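 FRET biosensor Rango (snurportin 1 IBB between N-terminal EYFP and C-terminal Cerulean), 50 nM in PBS/1 mM DTT/0.02% Tween-20/0.1% BSA, preincubated 5 min RT with compound; 0.125 microM importin beta added, 45 min RT, CFP/YFP FRET ratio read.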
# miR-21 FLuc: miR-21 reporter, rising signal; HeLa miR-21 FLuc reporter, luciferase, 48 h; Potency, µM (titrated, usually from 38.3 µM), for inactives: top-dose reporter change, positive = more light; 340,000 tested, under 10 active; active = well fitted rising curve with a large enough effect; inconclusive = small, poorly fitted or top-dose-only effect; inactive = no such curve, though single readings can be large or run the other way;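 note: % of control where 0% means no effect; miR-21 action dims this reporter so a rising signal means less miR-21 action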
#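 Compounds were titrated across several concentrations (up to approximately 40 uM) and incubated 48 hours with HeLa miR-21-FLuc reporter cells (miR-21 target sequence downstream of FLuc, endogenous miR-21). Readout was firefly luciferase luminescence after lytic detection reagent.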
# GLA inh pH 4.5: alpha-galactosidase A (human) inhibition, pH 4.5; AID 1467; purified enzyme, 4-MU-alpha-Gal fluorescence, pH 4.5; activity change, negative = inhibition, % at 105 µM; P06280; 230,000 tested, under 10 active; inconclusive = small, poorly fitted or top-dose-only inhibition, or a rising curve; inactive = flat fitted curve, though single readings scatter; no compound was filed as active;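 note: 0% = full activity with enzyme and -100% = basal without enzyme; dose as in the result columns while the protocol names 77 µM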
# Numbers without * were called inactive; ? = inconclusive; / = no result given; [ ] = dose if it differs, or a comment.
Rango release inh	Rango complex inh	miR-21 FLuc	GLA inh pH 4.5	canonical_smiles
-5%	-0.3%	/	/	O=C1COc2ccc(C(=O)COC(=O)CCOc3ccccc3)cc2N1
-16%	-1.9%	-47%	-3	Cc1ccc(NC(=O)c2nnn(-c3cc(C)cc(C)c3)c2N)cc1
3%	0.2%	1%	-21	CN(C(=O)Nc1ccccc1)C1CCS(=O)(=O)C1 (stereo unspecified)
-13%	1.2%	-12%	0	O=C(Nc1cccn2ncnc12)c1ccc(Cl)cc1
11%	0.1%	-7%	/	COC(=O)c1ccc(N2CCN(C(=O)C3CC3)CC2)c([N+](=O)[O-])c1
1%	-2.6%	24%	0	COc1ccc(NC(=O)c2cccc(S(=O)(=O)N3CCc4ccccc43)c2)cn1
-5%	-2.4%	-1%	0	CCCC(=O)N1CCC(O)(c2cccc(F)c2)CC1
10%	0.4%	-2%	/	C[C@H]1CCC(=O)N([C@H](CN=[N+]=[N-])Cc2ccccc2)CC1
-6%	-2.1%	14%	3	N#C/C(=C\c1cc([N+](=O)[O-])ccc1Cl)C(N)=O
5%	-1.2%	-45%	0	O=C(NCc1ccccc1)c1cccc(COc2ccc(Cl)cc2)c1
2%	-0.1%	1%	/	COc1ccc(CNc2ncc(-c3ccc(Br)cc3)n2C)cc1OC
-28%	?	-28%	1	N#Cc1cnc(SCC(=O)c2ccccc2)nc1N
0%	0.0%	1%	-1	COCCN(Cc1cn(C)nc1-c1ccccc1F)C(C)C
-6%	5.7%	-9%	-5	CCC(=O)N1CCN(c2ccccc2NC(=O)c2ccc(-c3cccc([N+](=O)[O-])c3)o2)CC1
14%	-3.3%	-2%	1	Cc1ccccc1CSc1nnc(-c2cccs2)n1Cc1ccco1
4%	0.2%	/	/	O=C(COC(=O)C1CCN(c2ccc(C(F)(F)F)cn2)CC1)NCc1cccc(Cl)c1
15%	-0.3%	-6%	2	Cc1ccc2c(Cl)cc(Cl)c(OCC(=O)NC(=O)NCc3ccco3)c2n1
0%	0.2%	/	/	COc1cc(C(=O)Nc2cc(Cl)ccc2-n2cncn2)ccc1OC(F)F
-11%	4.3%	-5%	-16	CN1CCN(NC(=S)NC(C)(C)CC(C)(C)C)CC1
-6%	5.8%	-4%	-2	CC(NCCN(C)C)C(=O)C12CC3CC(CC(C3)C1)C2 (stereo unspecified)
3%	-1.5%	-6%	/	O=C(N/N=C/c1ccoc1)c1ccc(Cl)cc1Cl
-3%	0.5%	-15%	2	CCOC(=O)c1cn(CC)c2cc(N3CCSCC3)c(F)cc2c1=O
2%	5.0%	3%	1	Cn1cc(CCC(=O)NCc2ccc3c(c2)OCO3)c2ccccc21
13%	-0.6%	28%	-6	Cc1ccc(-c2csc3ncnc(N4CCN(C(=O)c5ccccc5)CC4)c23)cc1
11%	-2.6%	5%	/	COC(=O)[C@H](Cc1c[nH]c2ccccc12)NC(=O)NCc1ccccc1
-10%	0.0%	-19%	2	Fc1cc2ncn(Cc3ccccc3)c2cc1F
0%	-3.5%	1%	-2	CN1CCc2nc3ccccc3c(C(=O)OCC(=O)N(CCC#N)c3ccccc3)c2C1
-19%	-3.2%	/	/	O=C(COC(=O)c1cc(=O)c2ccccc2o1)Nc1cc(Cl)ccc1Cl
-6%	0.3%	-13%	4	OCCN(CCO)c1ncnc2c1sc1nc(N3CCOCC3)c3c(c12)CCCC3
12%	-2.4%	0%	/	Cc1nc2scc(C)n2c(=O)c1S(=O)(=O)N1CCN(c2ccc([N+](=O)[O-])cc2)CC1
10%	7.2%	1%	-10	O=S(=O)(CCN(CCS(=O)(=O)C(F)(F)F)CC1CCCO1)C(F)(F)F (stereo unspecified)
-4%	5.2%	/	/	CC(OC(=O)c1ccc(O)cc1)C(=O)Nc1nc(-c2ccccc2)cs1 (stereo unspecified)
-19%	?	/	/	CCOc1ccccc1NC(=O)C(OC(=O)c1ccc(NC(=O)CC#N)cc1)c1ccccc1 (stereo unspecified)
-14%	5.8%	/	/	CC1=NN(CCc2ccccn2)C(=O)CC1
-1%	-0.4%	-1%	/	CCN(C(=O)c1ccc2c(=O)n3c(nc2c1)CCCCC3)c1cc(OC)ccc1OC
0%	7.3%	-3%	-3	CCOC(=O)c1c(NC(=O)C2c3ccccc3Oc3ccccc32)sc(C(C)=O)c1C
1%	-0.3%	/	/	Cc1ccc(NC(=O)Nc2ccccc2)nc1
-5%	-0.2%	/	/	COCCN(C(=O)COC(=O)Cc1coc2cc(C)ccc12)c1c(N)n(Cc2ccccc2)c(=O)[nH]c1=O
0%	-4.5%	-5%	6	COC(=O)c1ccccc1NC(=O)CSc1nc2ncccc2[nH]1
-8%	-0.1%	-38%	1	COc1ccc(/C=C/C(=O)N2CCCc3ccccc32)cc1
25%	1.2%	-9%	-2	Cc1c(Br)c([N+](=O)[O-])nn1CCCC(=O)NC(C)c1ccccc1 (stereo unspecified)
/	/	-3%	2	Cc1ccc(-n2[nH]c(C)c(C=Nc3ccc(S(=O)(=O)N4CCOCC4)cc3)c2=O)c(C)c1
-8%	-3.2%	-35%	6	COc1cccc2cc(-c3csc(NC(=O)CCC(=O)NCCCN4CCC(C)CC4)n3)c(=O)oc12
0%	-0.3%	-5%	1	O=C(Cc1ccccc1)c1c[nH]c(C(=O)NC2CCCC2)c1
?	?	-24%	-3	COc1ccc(C2CC(=O)N3CN(c4ccc(C)c(Cl)c4)CSC3=C2C#N)cc1OC (stereo unspecified)
7%	-1.9%	0%	-12	Nc1nc(SCC(=O)N2CCOCC2)n[nH]1
-14%	0.5%	0%	/	CCCCCc1c(C)nc(N2CCN(Cc3ccc4c(c3)OCO4)CC2)[nH]c1=O
-11%	-5.4%	-5%	3	CCCC(=O)N(c1ccc(C(=O)O)cc1)c1nc(-c2ccccc2)c(C)s1
10%	1.4%	/	/	Cn1ccnc1SCC(=O)NC1(C#N)CCCCC1
1%	0.3%	0%	/	CCc1nn(CC(=O)NC2CCN(Cc3ccccc3)CC2)c(=O)c2cc3cc(F)ccc3n12
19%	-0.7%	-7%	-11	CCCC(=O)Nc1c2c(nn1-c1ccc(OC)cc1)CS(=O)C2 (stereo unspecified)
-1%	-0.3%	-5%	/	CC1(C)CC(NC(=O)C2CCN(S(=O)(=O)c3ccc(F)cc3)CC2)CC(C)(C)N1
5%	-4.2%	-2%	5	S=C(Nc1ccccc1)N1CCCCC1
2%	2.2%	-3%	11	Cc1ccc2cc(CN(C)S(C)(=O)=O)c(=O)[nH]c2c1
-8%	-0.4%	/	/	NC(=O)c1oc2ccccc2c1NC(=O)C1CC(=O)N(c2ccccc2)C1 (stereo unspecified)
14%	5.5%	-3%	-19	CC(c1ccon1)N(C)C(=O)c1ccc(OC2CCN(C(=O)C3CC3)CC2)cc1 (stereo unspecified)

# (listing goes on)
Rango release inh	Rango complex inh	miR-21 FLuc	GLA inh pH 4.5	canonical_smiles
-1%	-4.3%	-4%	2	O=C(O)COc1ccccc1/C=N/NC(=O)c1cc(-c2ccccc2)nc2ccccc12
16%	-3.6%	/	/	CCc1nnc(NC(=O)CCC2CCCCC2)s1
-2%	-2.3%	/	/	O=C1C=CC(=O)C(CNc2ccc(C(=O)OCc3ccccc3)cc2)=C1
-15%	2.6%	0%	/	CCN(CC)Cc1c(C(=O)N/N=C/c2c(Cl)cccc2Cl)nnn1-c1nonc1N
3%	2.8%	/	/	CC(Oc1ccc(C#N)cc1)C(=O)N1CC=C(c2ccccc2)CC1 (stereo unspecified)
-24%	-0.3%	-3%	/	O=C(CN1CCOCC1)N/N=C/c1cccc2ccccc12
17%	-2.0%	2%	-1	O=C(Nc1ccccc1C(=O)Nc1cccnc1)c1ccccc1
-15%	-1.0%	/	/	Cc1ccc(C)c(COC(=O)CCN=C2NS(=O)(=O)c3ccccc32)c1
1%	-3.1%	-1%	-4	COc1cc(CCC(=O)N2CCN(c3ncccn3)CC2)cc(OC)c1OC
7%	-0.1%	-49%	1[21.1 µM]	N/C(=N\OCc1ccccc1)c1nonc1N
-10%	-0.3%	-15%	5	O=C(Nc1ccccn1)c1nc(-c2ccccc2)n(-c2ccccc2)n1
-18%	1.5%	4%	/	CCc1ccccc1N1C(=O)C(Cl)=C(N2CCOCC2)C1=O
8%	0.3%	/	/	Cc1ccc2nc(SCC(=O)c3ccc(Cl)cc3)nc(=O)n2c1
-12%	-3.8%	-73%	7	CC(=O)N1N=C(c2ccc(C)cc2)CC1c1ccco1 (stereo unspecified)
-13%	6.0%	/	/	CCN(CC)S(=O)(=O)c1cccc(C(=O)NCCc2ccccc2)c1
18%	0.1%	/	/	O=C(c1cc(C2CC2)nn1-c1ccccc1)N1CCN(c2ccccn2)CC1
3%	-0.4%	-1%	-9	CCC(C)NC(=O)c1[nH]c(C)c(C(=O)OC)c1C (stereo unspecified)
-18%	?	15%	-4	COc1ccc(C(=O)N2CCN(c3nc4cc(C)ccc4cc3C#N)CC2)c(OC)c1
-18%	-4.0%	/	-8	CCOC(=O)c1ccc(-c2ccc(-c3cc(=O)oc4cc(OC)c(OC)c(OC)c34)cc2)cc1
-18%	-2.3%	-14%	-7	O=C1C(C2=C(O)c3ccccc3C2=O)=Nc2ccccc21
-3%	-0.4%	-1%	/	O=C(NCCCN1CCCC1=O)C(=O)NCC1OCCCN1S(=O)(=O)c1cc(F)ccc1F (stereo unspecified)
1%	-0.2%	0%	2	Cc1ccc(C(=O)CSc2nc3ccccc3c(=O)n2-c2ccccc2)s1
-8%	0.2%	-1%	/	CCOc1ccc(CCNC(=O)C(C)n2nc(C)c3c(C)n(-c4ccccc4)nc3c2=O)cc1 (stereo unspecified)
-2%	-1.2%	-5%	-5	COC(=O)CNC(=O)c1cc(-c2ccncc2)nc2c(C)c(Cl)ccc12
/	/	-1%	-1	O=C1OC(c2ccc(F)cc2)=C/C1=C\c1ccc([N+](=O)[O-])o1
-9%	4.8%	4%	1	O=C(O)C/C(=C\c1ccc(Cl)cc1)c1nc2ccccc2o1
10%	-1.7%	13%	/	Cc1cc(C)cc(OCC(=O)Nc2ccncc2)c1
0%	0.1%	1%	-11	OC(C#CCN1CCCC1)(c1ccccc1)c1cccc(F)c1 (stereo unspecified)
15%	2.2%	-8%	-4	CCn1nnc(-c2ccccc2NC(=O)c2ccc(-n3cnnn3)cc2)n1
?	?	-24%	/	c1ccc(Nc2ncnc3sccc23)cc1
2%	-0.5%	2%	/	CNC(=O)C(=O)NCC1OCCN1S(=O)(=O)c1ccc(C)cc1 (stereo unspecified)
-4%	-1.2%	-6%	-3	CCc1ccccc1NC(=S)N(Cc1ccc(C(=O)O)cc1)Cc1ccc(OC)c(OC)c1
-16%	5.1%	-14%	-3	CCC(=O)Nc1cc(-c2nn3c(C)nnc3s2)ccc1C
8%	0.8%	2%	/	O=C(Cn1c(=O)oc2cc(S(=O)(=O)N3CCCCC3)ccc21)N1CCCCC1
24%	-3.0%	-45%	-8	Cc1ccc(NC(=O)NC2=NN(c3ccccc3)C(=O)/C2=C2/CCCN2C)cc1
-13%	-0.3%	-6%	-16	CC1(C)CC(=O)C(C=NCC2CCN(C(=O)Nc3ccc(Cl)c(Cl)c3)CC2)=C(O)C1
1%	5.1%	/	/	COc1ccc(-c2c(-c3cccc(C)c3)oc3ccc(-c4ccc5c(c4)OCO5)cc23)cn1
9%	2.6%	/	/	CN(C)C(=O)CCc1ccc2c3c([nH]c2c1)[C@]1(CCC2CCCC2)[C@@H](C(=O)N2CCOCC2)C[C@H](CC(=O)NCc2cccc(C(F)(F)F)c2)C(=O)N1CC3
2%	2.5%	1%	-6	CC1=C(C(N)=O)C(c2cccs2)NC(=S)N1 (stereo unspecified)

# Quoted at random: 4 entries already listed
Rango release inh	Rango complex inh	miR-21 FLuc	GLA inh pH 4.5	canonical_smiles
-13%	-0.3%	-6%	-16	CC1(C)CC(=O)C(C=NCC2CCN(C(=O)Nc3ccc(Cl)c(Cl)c3)CC2)=C(O)C1
9%	2.6%	/	/	CN(C)C(=O)CCc1ccc2c3c([nH]c2c1)[C@]1(CCC2CCCC2)[C@@H](C(=O)N2CCOCC2)C[C@H](CC(=O)NCc2cccc(C(F)(F)F)c2)C(=O)N1CC3
-16%	5.1%	-14%	-3	CCC(=O)Nc1cc(-c2nn3c(C)nnc3s2)ccc1C
1%	5.1%	/	/	COc1ccc(-c2c(-c3cccc(C)c3)oc3ccc(-c4ccc5c(c4)OCO5)cc23)cn1

# A portion of the library; count on the stated rates, not on these rows.
